Vaccinia mCherry = inhibitors of vaccinia virus infection (mCherry reporter signal); Vaccinia virus mCherry reporter infection, fluorescence; about a quarter of the inactives have no number; Potency, µM (titrated, usually from 36.5 µM), inactives show at the top dose activity change, negative = inhibition, most hits filed as inhibitors; actives 0.63% (n = 310,000); active = well fitted inhibition curve with a large enough effect; inconclusive = small, poorly fitted or top-dose-only effect; inactive = no such curve, though single readings can be large or run the other way; tested in A549 cells; note: nearly all actives have a fitted effect of over 35% in size; inactives centre near -10
VACV Venus inh = inhibitors of vaccinia virus (Venus reporter); Vaccinia virus Venus reporter expression, fluorescence; Potency, µM (highest dose often 36.5 µM), for the others: top-dose activity change, negative = inhibition, usual class: inhibitors; actives 0.46% (n = 330,000); active means well fitted inhibition curve with a large enough effect; inconclusive means small, poorly fitted or top-dose-only effect; inactive means no such curve, though single readings can be large or run the other way; tested in A549 cells; note: nearly all actives have a fitted effect of over 30% in size; inactives centre near -10
An asterisk follows results filed as active; i = inactive; ? = inconclusive; · = no result given; & = joins results of further samples; [ ] = dose if it differs, or a comment. % is set by controls: 0 for no effect and ±100 for the full control effect; potency is the fitted concentration of half-maximal effect. Rows are unselected; overall some 0.82% were active at least once.

SMILES	Vaccinia mCherry	VACV Venus inh
COc1ccc(-c2nc(Cn3c(SCc4ccccc4F)nc4ccncc43)c(C)o2)cc1OC	-30%	-17%
COc1ccc(-c2[nH]ncc2CN2CCN(c3ccccn3)CC2)c(OC)c1	?	-12%
S=c1nc(-c2ccccc2)c(-c2ccccc2)n[nH]1	i	-12%
O=C(NC(=S)N1CCCc2ccccc21)c1ccc(Br)cc1	-23%	-15%
COc1cccc(NC(=O)C(=O)NCCc2ccc(F)cc2)c1	i[7.34 µM]	-2%[7.34 µM]
CCn1c(SCc2ccc(Cl)c(Cl)c2)nnc1C(C)NC(=O)c1ccc(OC)cc1 (stereo not given)	-7%	22%
N#Cc1ccccc1Sc1ccccc1C(=O)OCc1nnc(-c2ccccc2)o1	-9%	-12%
COc1ccc(C(=O)N2CCN(c3ccc(NC(=O)c4cccnc4)cc3)CC2)cc1	-8%	-10%
CCOC(=O)[C@H]1[C@H]2COc3ccc(C)cc3[C@@H]2N2C(=O)c3cc(F)ccc3NC(=O)[C@@]12C	-7%	-3%
CCCC(=O)NCCc1cc2ccc(OC)cc2[nH]c1=O	-9%	-3%
COC(=O)c1cc([N+](=O)[O-])ccc1N1CCN(Cc2ccccc2)CC1	-25%	-15%
Cc1ccccc1OC(=O)CSc1nnc(-c2cccs2)o1	-4%	-4%
COCCCn1ccc(O)c(Cc2ccc(F)cc2)c1=O	·	1%
COc1ccccc1C(=O)O/N=C1/CCCc2c1ccc(OC)c2[N+](=O)[O-]	·	-41%
Cc1ccc(CNC(=O)C2CCC(=O)N(CCCN3CCOCC3)C2)cc1 (stereo not given)	-11%	-3%
Cc1cc(=O)nc2c3ccccc3n(CC(=O)NCCCN3CCCC3=O)n12	-3%	-13%
[O-]/C(=C(\C(=S)NCc1ccccc1)[n+]1ccccc1)c1ccc(Cl)cc1	-5%	2%
COc1nc(Nc2ccccc2)nc(OC)n1	-12%[7.34 µM]	-9%[7.34 µM]
COc1ccc(C(=O)N2CC(=O)Nc3ccccc32)cc1S(=O)(=O)N1CCCC1	-10%	-12%
Cc1ccc(C(=O)c2nocc2C(=O)c2cccs2)cc1	-12%[1.46 µM]	-9%
Cc1cc(C(=O)COc2ccc(F)cc2Br)c(C)n1C	-23%	-11%
C=CCn1c(SCC(=O)N2CCOCC2)nc2ccccc2c1=O	-13%	-5%
CC1CCc2sc3ncnc(N4CCN(CCO)CC4)c3c2C1 (stereo not given)	i	-19%
CCn1cc(C(=O)N2CCc3ccccc32)c(=O)c2cc(S(=O)(=O)N3CC(C)CC(C)C3)ccc21 (stereo not given)	-16%	-29%
O=C(CCCNC(=O)c1ccc(Cl)cc1)Nc1cccc(F)c1	63%[activator]	-4%

Shown with each value named: entries from further up.
S=c1nc(-c2ccccc2)c(-c2ccccc2)n[nH]1
- Vaccinia mCherry = i
- VACV Venus inh = -12%
O=C(NC(=S)N1CCCc2ccccc21)c1ccc(Br)cc1
- Vaccinia mCherry = -23%
- VACV Venus inh = -15%
COc1cccc(NC(=O)C(=O)NCCc2ccc(F)cc2)c1
- Vaccinia mCherry = i[7.34 µM]
- VACV Venus inh = -2%[7.34 µM]
CCn1c(SCc2ccc(Cl)c(Cl)c2)nnc1C(C)NC(=O)c1ccc(OC)cc1 (stereo not given)
- Vaccinia mCherry = -7%
- VACV Venus inh = 22%

Compound profiles, from the list above. Values in the order: Vaccinia mCherry, VACV Venus inh
CCCC(=O)NCCc1cc2ccc(OC)cc2[nH]c1=O as listed: -9%, -3%
CCn1cc(C(=O)N2CCc3ccccc32)c(=O)c2cc(S(=O)(=O)N3CC(C)CC(C)C3)ccc21 (stereo not given) as listed: -16%, -29%

More results follow:
SMILES	Vaccinia mCherry	VACV Venus inh
CCOc1ccc(NC(=O)CN2CCN(C(=O)C3CCCO3)CC2)cc1 (stereo not given)	-20%	-11%
COc1ccc(CNC(=O)c2sc(=O)n(Cc3ccc(C)cc3)c2C)cc1OC	i	-4%
COc1ccc(N2CCN(S(=O)(=O)c3cc(Br)cnc3N)CC2)cc1	-1%	-17%
C[C@H]1CN=C(N(C)C)N1CCC1CCCC1	?	-18%
O=C(COC(=O)CCCc1nc2ccccc2s1)Nc1ncc(Cl)cc1Cl	1%	-1%
S=C(NCc1cccnc1)NCc1cccnc1	i	-13%
Cc1csc(C)[n+]1CC(=O)c1ccccc1	-17%	-7%
COc1cc2c(cc1OC)/C(=C/c1ccc(Br)cc1)C(=O)OC2	-4%	-20%
O=C(NCC(=O)N(c1ccc(F)cc1)C(C(=O)NC1CCCC1)c1cccnc1)c1ccco1 (stereo not given)	-20%	-17%
CCN(C(=O)Cn1c(=O)n(-c2cc(OC)c(OC)c(OC)c2)c(=O)c2ccccc21)c1cccc(C)c1	-12%	-9%
COc1ccc(S(=O)(=O)NC2(C(F)(F)F)N=C(c3ccccc3)NC2=O)cc1 (stereo not given)	-15%	-8%
O=C(c1ccco1)N1CCN(C(=O)c2cnn(-c3cccc(F)c3)c2C2CCNCC2)CC1	2%	5%
CC(C)[C@H](NC(=O)c1ccc(C(C)(C)C)cc1)C(=O)N1CCN(Cc2ccc3c(c2)OCO3)CC1	-10%	-24%
OC[C@H]1O[C@@H](Oc2ccc(O)cc2)[C@H](O)[C@@H](O)[C@@H]1O	-4%	-7%&-3%
CC(=O)Nc1ccc(SCC(=O)N(C)CC(=O)Nc2ccccc2Cl)cc1	-15%	-2%
CN(c1ccccc1)S(=O)(=O)c1cccc(C(=O)NC2CCCC2)c1	-6%	-19%
COC(=O)c1sc(NC(=O)C(C)C)c(C(=O)OC)c1C	-3%	-20%
CN(C)CCN(C(=O)C1CCN(S(=O)(=O)c2cccs2)CC1)c1nc2ccc(F)cc2s1	i	-11%
COc1ccc(Nc2ccc3cc(S(=O)(=O)N4CCCC4)ccc3n2)cc1Cl	-15%	-7%
Cc1ccc(-c2nn(-c3ccc(F)cc3)cc2C(=O)NC2CCC(O)CC2)cc1 (stereo not given)	-12%	-11%
CC(=O)c1c(C)[nH]c(C(=O)N2CCN(c3ncccn3)CC2)c1C	i	-5%
CCCN(CCC)c1nc2ccccc2n2c(C)nnc12	-13%	-24%
COc1ccc(Cl)c(-c2cc(C(=O)Nc3ccc(C)c(NS(C)(=O)=O)c3)[nH]n2)c1	-17%	?
COc1cc(NC(=O)C2CC2C)c(C(=O)O)cc1OC (stereo not given)	i	-14%
CCc1ccc(CNC(=O)c2cc3c(C)nc4ccccc4c3o2)cc1	?	?

Part of the list above, field by field:
> Cc1csc(C)[n+]1CC(=O)c1ccccc1
  Vaccinia mCherry: -17%; VACV Venus inh: -7%
> S=C(NCc1cccnc1)NCc1cccnc1
  Vaccinia mCherry: i; VACV Venus inh: -13%
> CCCN(CCC)c1nc2ccccc2n2c(C)nnc12
  Vaccinia mCherry: -13%; VACV Venus inh: -24%
> CN(c1ccccc1)S(=O)(=O)c1cccc(C(=O)NC2CCCC2)c1
  Vaccinia mCherry: -6%; VACV Venus inh: -19%

(cont.)
SMILES	Vaccinia mCherry	VACV Venus inh
O=C(c1ccc(Cl)cc1[N+](=O)[O-])N1CCc2ccccc2C1	-20%	-6%
N#CCCN(C(=O)Cn1nc(C(=O)O)c2ccccc2c1=O)c1ccccc1	i	-15%
C=CCC(NC(=O)Cc1ccccc1)C(=O)NCCC (stereo not given)	-24%	-9%
O=C(Cn1c(=O)oc2cc(S(=O)(=O)N3CCCC3)ccc21)Nc1ccc(F)cc1F	i	-9%
CCOc1ccc(NC(=O)c2cc(CN3CCCC3)on2)cc1	-1%	-9%
Cn1nc(C(F)(F)F)c(-c2ccc(Br)cc2)c1NC(=O)Nc1ccc(F)cc1F	-5%	?
O=C(Nc1ccc(Br)cc1)c1cccc(-n2cnnn2)c1	i	-8%
O=C(COc1ccc2c(c1)CCC2)N1CCN(c2ccccc2F)CC1	-11%	-6%
Cc1cc(=O)oc2c(C)c(OCC(=O)N3CC[C@@]4(O)CCCC[C@H]4C3)ccc12	-5%	-6%
CC(C)(C)C(=O)N(Cc1ccc(Cl)cc1)c1cnccn1	-17%	-25%
Cc1ccc(NC(=O)c2cc(NC(=O)c3ccco3)ccc2N2CCOCC2)cc1Cl	·	-10%
COc1cccc(C2(O)C(=O)Nc3ccccc32)c1 (stereo not given)	-7%	-3%
COc1ccc(NC(=O)CN2C(=O)NC3(CCCC3)C2=O)cc1OC	-12%	-3%
CN(C)CCNC(=O)C1(O)c2cc(Br)ccc2NC(=O)N1c1ccc(Cl)cc1 (stereo not given)	-27%	-16%
COC(=O)[C@H](CC(C)C)NC(=O)N1CCC(C)CC1	-22%	-7%
O=C(COC(=O)c1ncc(Cl)c(Cl)c1Cl)NC(=O)c1ccccc1	-1%	-4%
O=C(Nc1ccc(Oc2ccc3c(c2)C(=O)N(c2ccc(O)cc2)C3=O)cc1)c1cccs1	-11%	-12%
O=C1C(=O)c2ccccc2C(O)=C1c1cccc([N+](=O)[O-])c1	-29%	0%
CCOc1ncccc1C(=O)OCC(=O)c1ccccc1	-18%	-13%
O=C1CN(C(=O)c2cccc(Br)c2)C(c2ccccc2)c2cc(Cl)ccc2N1 (stereo not given)	-11%	-6%
Nc1nc(SCc2ccc(Cl)cc2Cl)n[nH]1	·	-17%
O=S(=O)(c1cccc(COc2c(Cl)cccc2Cl)c1)N1CCOCC1	-15%	-17%
FC(F)(F)Oc1ccc2c(c1)NC(c1ccncc1)=NC(c1cccs1)=N2	-19%	-23%
C=CCC[C@H](CCCCC)OC(=O)/C=C/[C@H](O)[C@@H](O)C[C@H](O)CC=C	-20%	?
CCOCCCNC(=O)C1CCN(c2nc3ccc(C)cc3[nH]2)CC1	-10%	-12%
More structures follow:
SMILES	Vaccinia mCherry	VACV Venus inh
C/C=C/C(=O)Nc1cccc(C2=NOC3(C2)C[C@@H](C(N)=O)N(C(=O)c2cc([N+](=O)[O-])cc([N+](=O)[O-])c2C)C3)c1 (stereo not given in full)	i	-10%
CCN1CCSc2ccc(C(=O)NCc3ccc(OC(C)C)cc3)cc21	-20%&-14%	-17%&-8%
CCc1ccccc1NC(=O)CSc1nncn2c1cc1oc(C)cc12	11%	-3%
Cc1ccc(S(=O)(=O)N2CCC(C(=O)Nc3cc(C(F)(F)F)ccc3N3CCOCC3)CC2)cc1C	-11%	-6%
O=C(NCC1CCCO1)C1CC(=O)N(c2ccccc2)C1 (stereo not given)	2%	13%
CN(CCc1ccccn1)C(=O)CCC1CCCN(Cc2ccccc2OC(F)F)C1 (stereo not given)	-17%	-5%
Cc1nonc1CN(C)C(=O)CC1C(=O)NCCN1Cc1ccccc1C(F)(F)F (stereo not given)	i	-2%
Nc1ncnc2c1ncn2[C@@H]1O[C@H](COP(=O)(O)OP(=O)(O)OP(=O)(O)OP(=O)(O)OC[C@@H]2O[C@H](n3cnc4c(N)ncnc43)[C@@H](O)[C@H]2O)[C@@H](O)[C@H]1O	0%	11%
CCN1C(=O)[C@H]2[C@@H](c3ccc(Cl)cc3)N3C(=O)CN(CC4CC4)C(=O)[C@@]3(C)[C@H]2C1=O	i	2%
O=C(NC1CCCCC1)c1ccc2c(c1)OCO2	i	-10%
Cc1cc(OCC(=O)NCCc2nc3ccccc3[nH]2)cc(C)c1Cl	4%	6%
COc1ccc(CNC(=O)Cn2c(=O)oc3cc(S(=O)(=O)N4CCCCCC4)ccc32)cc1	-12%	-9%
CCc1cccc(NC(=O)c2ccc(Br)o2)c1	-23%	-14%
CCCCn1c(N)c(N(CC)C(=O)c2ccc(C#N)cc2)c(=O)[nH]c1=O	-9%	-7%
COc1ncccc1C(=O)N1CCCC(C(=O)Nc2cccc(-c3ccc(F)cc3)c2)C1 (stereo not given)	?	-19%
O=C(Cc1cccc(NC(=O)C2CCCN(C(=O)CCc3ccccc3)C2)c1)Nc1ccc(C(=O)N2CCCCC2)cc1 (stereo not given)	?	?
O=C(Nc1nc(-c2cccc(Br)c2)cs1)Oc1ccccc1	?	-28%
CCCCOc1ccc(-c2csc(N)n2)cc1[N+](=O)[O-]	?	-23%
O=C1C=C(OCCCl)CC(c2cccc(Cl)c2)O1 (stereo not given)	-6%	15%
CC(=O)Nc1ccccc1-c1nc(CNC(=O)c2ccc(Cl)cc2)c(C)o1	-1%	1%
CCOc1ccc(CC(=O)NCCc2csc3nc(-c4ccccc4F)nn23)cc1	?	?
Cc1ccccc1NC(=S)C1=C(O)c2sccc2N(C)S1(=O)=O	-13%	-17%
COCCNCC#CCOc1ccc(OC)cc1	0%	-2%
COc1ccc(CC(=O)Nc2ccc(-c3noc(COc4ccccc4C)n3)cc2)cc1	·	-26%
COc1ccccc1OCCNC(=O)c1ccccc1C	-8%	4%
Remaining list, next part
SMILES	Vaccinia mCherry	VACV Venus inh
O=C(CC1CCCC1)NCCS(=O)(=O)N1CCN(c2ccccc2F)CC1	-14%	-16%
COc1ccc(CNc2ncnc3c2c(-c2ccccc2)cn3-c2ccccc2)cc1	-13%	-6%
Cc1c(Br)cccc1NC(=O)C1(C)CCN1CCc1ccccc1 (stereo not given)	-6%	-5%
O=C(NC(=S)Nc1ccccc1N1CCOCC1)c1ccc([N+](=O)[O-])cc1	-10%	-7%
COCCCN1C(=O)C(=O)/C(=C(/O)c2ccc3c(c2)CC(C)O3)C1c1cccnc1 (stereo not given)	·	-8%
CCOC(=O)c1ccc(NC2(c3ccccc3)C(=O)c3ccccc3C2=O)cc1	4%	12%
Cc1ccc2c(=O)cc(C(=O)Nc3sc4c(c3C(N)=O)CCCC4)oc2c1	-22%	-6%
O=C(CN(Cc1ccc(F)cc1)C(=O)CCC(=O)Nc1nccs1)NCC1CCCO1 (stereo not given)	-13%	-14%
